HNF4A DNA FP: change in binding of human HNF4 alpha to DNA; P41235; activity change, % at 10 µM; HNF4a-FITC DNA binding, fluorescence polarization, 1 h; 360,000 tested, 0.3% active; in the data active = activity change above about 30%, passing the limit was not always enough;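 also: controls were the assay level and a saturating level of protein; the project sought stronger binding though the title names inhibitors; some compounds called inactive have numbers as strong as hits; positive values seem to mean higher polarization but the record does not say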
Target sequence (P41235 whole entry, looked up): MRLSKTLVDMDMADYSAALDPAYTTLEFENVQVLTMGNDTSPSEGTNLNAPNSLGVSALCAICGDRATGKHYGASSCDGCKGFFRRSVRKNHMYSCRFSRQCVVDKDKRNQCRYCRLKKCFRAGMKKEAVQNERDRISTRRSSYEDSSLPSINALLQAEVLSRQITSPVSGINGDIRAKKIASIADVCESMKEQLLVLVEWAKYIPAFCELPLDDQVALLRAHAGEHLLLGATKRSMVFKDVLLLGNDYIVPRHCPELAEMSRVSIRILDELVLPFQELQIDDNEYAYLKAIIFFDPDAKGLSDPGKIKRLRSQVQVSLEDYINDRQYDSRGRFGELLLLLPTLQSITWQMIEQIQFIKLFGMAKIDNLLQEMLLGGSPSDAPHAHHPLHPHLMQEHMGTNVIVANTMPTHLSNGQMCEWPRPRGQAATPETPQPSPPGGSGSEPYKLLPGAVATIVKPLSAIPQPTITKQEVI
AF4-AF9 inh: blocks AF4 peptide binding to human AF9. 350,000 tested, 0.47% active. P42568. AlphaScreen, biotin-AF4 peptide binding to FLAG-AF9. inhibition, % at 10 µM;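 active = every replicate reaching a set inhibition limit, whatever the replicate mean, cut at about 25% in these data; inconclusive = mean inhibition reaches that limit but some replicates miss it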;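 also: 0% = plate neutral control median and 100% = total signal loss; the record names both 10 and 1 µM as test concentration; the first replicate is given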
FGF22 binding: binders of recombinant human FGF22 by thermal shift. Q9HCT0. SYPRO orange fluorescence; percent of sucrose octasulfate shift, DMSO zero. calls only at 9.99 µM. 340,000 tested, 1.5% active;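 active = melting point raised past a set limit in the mean and every replicate; inconclusive = no clear call; three in four hits are not shown here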
Target sequence (Q9HCT0 whole entry, looked up): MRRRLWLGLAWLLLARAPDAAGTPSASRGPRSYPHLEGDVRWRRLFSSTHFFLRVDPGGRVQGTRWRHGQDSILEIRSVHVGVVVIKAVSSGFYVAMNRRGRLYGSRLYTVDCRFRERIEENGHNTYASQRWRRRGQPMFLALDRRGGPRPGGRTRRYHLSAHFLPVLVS
E coli growth: blocks Escherichia coli growth | OD600, 23 h; stronger effect = lower value | OD600 absorbance (no concentration beside the values) | 330,000 tested, 0.21% active;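 active = OD600 absorbance below the run mean of sample wells minus 3.6 SD, in any replicate, cut at about 0.56 in these data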;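 also: stock transfer was 300 nL into about 60 µL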
Ecoli rRNA inh: selective bacterial rRNA inhibition in E. coli; GFP signal change (wild-type ribosome), % (no concentration beside the values); E. coli WT GFP vs humanized-ribosome RFP mutants, fluorescence, 24 h; stronger effect = lower value; DMSO median 0, no signal -100; 350,000 tested, 1.6% active;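 active = significant combined selectivity score with lowered wild-type GFP, culture density cut under 30%, mutant RFP and density less affected; inactive = any of these conditions unmet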; also: one replicate is shown; some compounds called inactive have numbers as strong as hits
ALR inh: human ALR oxidase inhibition via reduced H2O2; P55789; purified ALR, DTT oxidation, H2O2 HRP-luminol luminescence; inhibition, % (test concentration not listed); 290,000 tested, 3.8% active; AID 485317;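 active = mean and each replicate at 75% or more; inconclusive = only one of the two met; inactive = neither met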;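 also: stock transfer was 7.5 nL into about 7.5 µL; 0% = neutral wells and 100% = wells with inactivated enzyme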
Target sequence (P55789 whole entry, looked up): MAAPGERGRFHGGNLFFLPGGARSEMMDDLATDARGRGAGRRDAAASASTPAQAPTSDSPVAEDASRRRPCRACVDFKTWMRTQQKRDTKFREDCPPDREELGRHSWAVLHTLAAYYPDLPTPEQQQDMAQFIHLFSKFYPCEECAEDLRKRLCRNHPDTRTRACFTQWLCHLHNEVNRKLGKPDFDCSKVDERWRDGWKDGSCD
Vif TR-FRET: inhibitors of Vif binding to APOBEC3G peptide, primary screen, biochemical, TR-FRET, GST-Vif 1-94, biotin-A3G peptide, dose response retest (AID 1117319); one-dose inhibition, %; IC50 in µM for titrated hits; 260,000 tested, 0.57% active; TR-FRET GST-Vif / biotin-A3G peptide binding; higher % means a stronger effect; test concentration not given here; strong numbers were not always called active;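 active = above the screen mean plus three standard deviations and confirmed in dose response; inconclusive = results disagree or hit not tested in dose response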;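 also: Vif residues 1-94 fused to GST binding biotinylated APOBEC3G peptide 110-148; 0% = full assay without inhibitor and 100% = GST in place of GST-Vif; retest series ran down from 100 µM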
Ecoli rRNA inh OD600: second read-out of Ecoli rRNA inh, no call of its own (marks repeat the call); OD600 change, %; measured here: OD600 growth;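 optical density of the mix in the first replicate; 0 = DMSO median and -100 = no signal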
Ecoli rRNA inh RFP: recorded beside Ecoli rRNA inh, whose call it bears; RFP signal change, %; measured here: RFP humanized mutant strains;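 first replicate; 0 = DMSO median and -100 = no signal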
An asterisk follows results filed as active; i = inactive; ? = inconclusive; . = no result given.

Screens in order: FGF22 binding, Ecoli rRNA inh RFP, Vif TR-FRET, ALR inh, Ecoli rRNA inh OD600, AF4-AF9 inh, E coli growth, HNF4A DNA FP, Ecoli rRNA inh
> COc1ccc(S(=O)(=O)Nc2ccc(CC#N)cc2)cc1
→ ., ., ?, -10.9, ., ., 0.728, -1.7, .
> Clc1ccc(Cc2ccccc2)nn1
→ ., ., 0.3%, -6.5, ., ., 0.669, 0.0, .
> O=C(CCC(=O)c1ccc(F)cc1)Nc1ccccc1Cl
→ i, -0.6, ., -3.6, 2.2, 3.1, 0.681, 4.0, 5.9
> COc1ccc(CC(=O)N2CCN=C2SCc2cccc([N+](=O)[O-])c2)cc1
→ i, -0.8, 0.0%, 99.3*, -3.3, 4.3, 0.678, -1.3, 1.0
> Cc1ccc(C2C(=O)N(C3CCCC3)CC(=O)N2C2CCCCC2)cc1 (configuration not stated)
→ ., ., 8.1%, -0.3, ., ., 0.682, -5.7, .
> Cc1[nH]c(=O)[nH]c(=O)c1/C=N/NC(=O)[C@H](C)NC(=O)OC(C)(C)C
→ ., ., -1.8%, -3.2, ., ., ., 2.0, .
> CC(C)(C(=O)c1ccccc1)/[N+]([O-])=C/c1ccccc1
→ ., ., -4.4%, -3.0, ., ., 0.677, 2.4, .
> COCCN1CCN(C(=O)C2CCC(=O)N(Cc3cccc(C(F)(F)F)c3)C2)CC1 (configuration not stated)
→ i, 0.3, ., -13.8, 7.9, -0.3, 0.719, -6.5, 6.8
> c1ccc(-c2ccncc2)nc1
→ i, -2.6, ., -9.2, 6.8, ., 0.774, 1.4, 0.6
> CCN1C(=O)/C(=C\c2ccncc2)SC1=Nc1ccc(C)c(C)c1
→ ., ., ., 0.1, ., ., 0.729, 0.0, .
> COc1ccc(-n2nc(C(=O)NCC(=O)N3CC(C)CC(C)C3)c3ccccc3c2=O)cc1OC (configuration not stated)
→ i, 1.3, ., 0.6, 2.1, 0.6, 0.725, 2.8, -4.2
> C[N+](C)=C1SCC(C)(/C=N/O)S1 (configuration not stated)
→ i, 2.4, ., -4.1, -7.3, -2.3, ., 1.6, 3.3
> Cc1c(F)cccc1NS(=O)(=O)c1ccc2c(c1)n(C)c(=O)c(=O)n2C
→ i, -3.7, ., -5.8, -15.8, 0.2, 0.661, -3.8, -3.1
> CC=Cc1ccc2n(c1=O)C[C@@H]1[C@@H](CO)[C@H](C(=O)NCc3ccccc3F)N[C@H]21 (mixture of isomers)
→ i, -4.3, ., ., -9.9, -5.3, ., ., -2.9
> Cc1noc(C)c1COC(=O)c1ccc(S(=O)(=O)NCc2ccco2)cc1
→ ., ., 8.8%, 3.2, ., ., 0.737, -0.1, .

Compound profiles, as listed above. Order of screens: FGF22 binding	Ecoli rRNA inh RFP	Vif TR-FRET	ALR inh	Ecoli rRNA inh OD600	AF4-AF9 inh	E coli growth	HNF4A DNA FP	Ecoli rRNA inh
CC(C)(C(=O)c1ccccc1)/[N+]([O-])=C/c1ccccc1 as listed: .	.	-4.4%	-3.0	.	.	0.677	2.4	.
COc1ccc(CC(=O)N2CCN=C2SCc2cccc([N+](=O)[O-])c2)cc1 as listed: i	-0.8	0.0%	99.3*	-3.3	4.3	0.678	-1.3	1.0

Later entries:
Screens in order: FGF22 binding, Ecoli rRNA inh RFP, Vif TR-FRET, ALR inh, Ecoli rRNA inh OD600, AF4-AF9 inh, E coli growth, HNF4A DNA FP, Ecoli rRNA inh
> O=c1c2cccnc2nc2n1CCCCC2
→ i, 2.4, ., -3.8, 1.2, 1.4, 0.66, -0.9, -1.2
> O=C(C[C@H]1C=C[C@@H](NC(=O)Nc2ccccc2)[C@@H](CO)O1)NCc1ccccn1
→ i, -0.3, ., ., -6.7, -0.4, ., ., 1.0
> COc1ccc(C(=O)NC2CCN(CC(=O)Nc3cccc(C)c3)CC2)cc1OC
→ ., ., -4.0%, -0.4, ., ., 0.674, 0.6, .
> COC(=O)[C@H]1C[C@@]2(O)CN(S(=O)(=O)c3ccc(C)cc3)C[C@@]2(OC(=O)NCc2ccccc2F)C[C@H]1C(=O)OC
→ i, -0.4, 4.8%, ., -2.5, -2.2, ., 0.5, -3.4
> Cc1cc(=O)[nH]c(Nc2cccc(C(F)(F)F)c2)n1
→ ., ., 1.4%, -21.8, ., ., 0.61, -3.6, .
> CCc1ccc(N(C)S(=O)(=O)c2ccc3[nH]cc(C(=O)NCCN4CCOCC4)c(=O)c3c2)cc1
→ ., ., 11.1%, -6.5, ., ., 0.661, 0.2, .
> Clc1ccc2c(N3CCCC3)ccnc2c1
→ ., ., -4.5%, -16.7, ., ., 0.654, 0.1, .
> Cc1cc(C(=O)c2cccs2)c(N)s1
→ i, 2.1, 15.2%, 99.4*, -12.5, 8.0, 0.694, 19.2, -7.4
> Cc1ccc(-c2nnc(SCC(=O)Nc3ccccc3F)o2)cc1
→ i, 4.4, -2.7%, ., 2.7, -11.4, 0.695, 2.4, 8.8
> COCc1cc(CNC(=O)C2CCC(=O)N(Cc3ccccc3OC)C2)[nH]n1 (configuration not stated)
→ i, 0.5, 12.1%, -11.7, 10.3, -1.7, 0.667, -1.2, 12.4
> O=C(c1[nH]c(C(F)(F)F)nc1-c1ccccc1)N1CCN(c2ccc(C(F)(F)F)cn2)CC1
→ i, ., ., ., ., -0.4, ., 0.0, .
> C[C@@H]1CN([C@@H](C)CO)S(=O)(=O)c2ccc(-c3ccc(C(=O)N(C)C)cc3)cc2O[C@@H]1CN(C)C(=O)Nc1ccccc1F
→ i, -0.6, ., ., -14.8, -2.2, ., ., -3.2
> O=C(NNC(=O)C1CCN(S(=O)(=O)c2ccc(Cl)cc2)CC1)c1ccccc1O
→ i, -10.4, ., -3.8, -8.5, -0.9, ., 0.8, -16.9
> O=C(CSCc1ccccc1Cl)Nc1c[nH]c(=O)[nH]c1=O
→ ., ., -4.7%, ., ., ., 0.654, 0.4, .
> O=C(NC1CCCC1)C(C1CC1)n1c(-c2cc3ccccc3[nH]2)nc2ccccc21 (configuration not stated)
→ i, -4.3, ., ., -35.1, 4.1, ., 4.1, -24.5
> CCOC(=O)CNC(=O)N(CCOC)CC1CCCN(C2Cc3ccccc3C2)C1 (configuration not stated)
→ i, -0.1, ., -5.7, 4.2, -7.9, 0.668, -1.7, 5.1
> CCOC(=O)CCc1c(C)nc(SCc2ccc(C(=O)O)cc2)c(C#N)c1C
→ i, -1.6, ., ., -20.6, -8.8, 0.63, -3.2, -13.3
> Cc1nc2c3cc(F)ccc3n(Cc3ccc(F)cc3)c2s1
→ i, -1.4, -10.6%, -8.0, 3.7, 0.7, 0.717, -3.4, 5.5
> CCN(CC(=O)Nc1c(F)cccc1F)C(=O)Cc1ccsc1
→ i, -0.5, 1.0%, -1.9, 8.6, 7.3, 0.653, 0.8, 15.9
> C[C@@H]1CCCCO[C@@H](CN(C)S(=O)(=O)c2cccs2)[C@@H](C)CN([C@H](C)CO)C(=O)c2cc(NC(=O)Nc3ccccc3)ccc2O1
→ i, -1.7, ., ., 4.0, -3.9, ., ., -1.0
> COc1cccc(-n2c(CN3CCN(c4ccccn4)CC3)nc3ccc([N+](=O)[O-])cc3c2=O)c1
→ i, 12.0, 20.3%, ., -0.8, 3.3, 0.693, -2.2, -4.9
> CO[C@H]1CC[C@@H]2CCN(C)C(=O)C[C@@H](c3ccccc3)CN(C)C(=O)c3cccc(C#N)c3OC[C@@H]1O2
→ i, 1.9, ., ., -5.2, -3.4, ., ., 1.7
> COc1ccc(NC(=O)CSCC(=O)Nc2ccccc2N2CCCCC2)cc1
→ i, 8.6, -2.2%, ., -66.4, -6.8, 0.666, 3.9, -31.6
> COc1ccc(N(C)C(=O)c2oc(=O)c3ccccc3c2-c2ccc(C)cc2)c(OC)c1
→ i, 16.1, ., -0.1, -10.0, 10.9, 0.726, -2.2, -11.8
> COc1ccc(/C=N/NC(=O)CNC(=O)c2ccc3c(c2)OCCO3)c(C(=O)O)c1OC
→ i, -0.9, -5.9%, 16.7, 9.3, -1.1, ., 0.5, 8.3
> O=C(NCc1cccc(Cl)c1)C1=CC=CN2CCS(=O)(=O)N=C12
→ i, 8.7, 2.2%, 0.9, 3.0, 0.6, 0.665, 5.2, 9.5
> O=C(CN(c1cccc(C(F)(F)F)c1)S(=O)(=O)c1ccc(Cl)c([N+](=O)[O-])c1)NCc1ccc(F)cc1
→ ., ., 1.5%, -6.7, ., ., 0.696, -3.0, .
> FC(F)(F)c1cc(-c2ccccc2)nc(N2CCCCCC2)n1
→ ., ., 20.5%, -11.7, ., ., 0.739, -2.6, .
> C[C@@H]1CCCCO[C@@H](CN(C)C(=O)Nc2ccc(C(F)(F)F)cc2)[C@H](C)CN([C@H](C)CO)C(=O)c2cc(NS(=O)(=O)c3cn(C)cn3)ccc2O1
→ i, 0.9, ., ., -36.2, 1.8, ., ., -17.6
> Cc1ccc(C(=O)c2no[n+]([O-])c2C(=O)c2ccc(C)cc2)cc1
→ i, 3.2, ., 47.6, -1.4, 1.4, 0.671, 3.6, -4.0
> COc1ccc(N2C(=O)C3CCCN3C2c2ccccc2)cc1Cl (configuration not stated)
→ ., ., ?, -8.2, ., ., 0.709, 7.3, .
> COC(=O)[C@]1(C)N[C@H](CN(C)S(=O)(=O)c2ccc(C)cc2)[C@@H]2C(=O)N(C)C(=O)[C@@H]21
→ i, -6.0, 2.7%, ., 0.0, 8.6, 0.727, -3.5, -5.5
> C#CCOCCOCCOCCNc1nc(N2CCN(C(=O)Cn3cc(CCCCN)nn3)CC2)nc(N2CCN(C(=O)[C@H](Cc3ccc(O)cc3)n3cc(CCO)nn3)CC2)n1
→ i, -3.3, ., ., 6.0, -2.4, ., 3.5, 5.7
> CC(/C=C/c1ccccc1F)=N\NC(=O)c1ccccc1
→ i, 0.4, ., -10.8, -23.1, 0.9, ., 2.9, -27.4
> C#CCOCCOCCOCCNc1nc(N2CCN(C(=O)[C@H](CO)n3cc([C@@H](N)C(C)C)nn3)CC2)nc(N2CCN(C(=O)[C@H](CCC(=O)O)n3cc([C@@H](N)CCCCN)nn3)CC2)n1
→ i, 6.3, 19.7%, -0.2, 22.6, 2.9, 0.706, 6.0, 28.0
> O=C(O)c1cccc(C(=O)c2cccc3ccccc23)c1
→ i, ., ., -1.0, ., 2.0, 0.68, -3.9, .
> O=C(NCc1cccnc1)C(=O)C1C(=O)Nc2ccccc21 (configuration not stated)
→ i, -4.3, 7.5%, 22.2, -3.8, -13.9, 0.667, -1.9, 8.8
> CCCCCc1cc(=O)oc2c(C(CCN3CCCC(C)C3)c3cc(OC)c(OC)c(OC)c3)c(OC)cc(OC)c12 (configuration not stated)
→ ., ., ., -61.0, ., ., 0.666, 1.1, .
> O=S(=O)(c1ccc(F)cc1)N1CCCCN2[C@H](CO)[C@H](c3ccc(-c4ccccc4)cc3)[C@H]2C1
→ i, -11.1, ., ., -50.4, -1.4, ., ., -54.8
> COc1cccc(NC(=O)NC2CCN(Cc3nnnn3Cc3ccc(F)cc3)CC2)c1
→ ., ., ?, -12.1, ., ., 0.666, 0.7, .
> Cc1cccc(CN2CCN(Cc3cccc4nonc34)CC2CCO)n1 (configuration not stated)
→ i, 1.1, -16.4%, 0.4, 10.6, -0.1, 0.679, -1.7, 10.9

Bioassay records: PubChem, several laboratories

These rows are one share of the data (hit frequency here may not be typical).
